High-throughput results deposited in PubChem by Broad Institute.
Vaccinia inh: blocks a specific stage of Vaccinia orthopoxvirus infection; activity change (mCherry), % (no concentration beside the values); Vaccinia-infected cells, mCherry/Venus stage reporter fluorescence; active compounds read low; some inactives read as strong as hits; 89,000 compounds, 0.01% hits; AID 1053133;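 active = mCherry past -33% and 40 or more points under the early reporter, replicates agreeing; inconclusive = past -33% without that gap or agreement; tested in A549 cells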;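 note: scaled between vehicle wells and reference inhibitor wells; 23 nL library stock went into each well; one replicate is shown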
Vaccinia inh Venus: second read-out of Vaccinia inh, no call of its own (marks repeat the call); activity change (Venus), %; measured here: Venus reporter, other viral stage;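 negative = less Venus signal; first of two replicates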
* = called active by the depositor; ? = inconclusive; nt = not tested or not shown. Only part of the results is shown; count on the stated rates, not on these rows.

The first 3 compounds, to show the layout:
SMILES	Vaccinia inh	Vaccinia inh Venus
C[C@H](CO)N1C[C@H](C)[C@H](CN(C)C(=O)NC2CCCC2)Oc2cc(/C=C/c3ccccc3)ccc2S1(=O)=O	-34	-29
O=S(=O)(N[C@@H]1CC[C@@H](CCNS(=O)(=O)c2ccccc2Cl)O[C@H]1CO)c1ccccc1	-8	-7
COc1ccc(NC(=O)Nc2ccc3c(c2)C(=O)N([C@@H](C)CO)C[C@@H](C)[C@@H](CN(C)S(C)(=O)=O)O3)cc1	3	6

The list itself (from the top)
SMILES	Vaccinia inh	Vaccinia inh Venus
C[C@H](CO)N1C[C@H](C)[C@H](CN(C)C(=O)NC2CCCC2)Oc2cc(/C=C/c3ccccc3)ccc2S1(=O)=O	-34	-29
O=S(=O)(N[C@@H]1CC[C@@H](CCNS(=O)(=O)c2ccccc2Cl)O[C@H]1CO)c1ccccc1	-8	-7
COc1ccc(NC(=O)Nc2ccc3c(c2)C(=O)N([C@@H](C)CO)C[C@@H](C)[C@@H](CN(C)S(C)(=O)=O)O3)cc1	3	6
COc1ccc(S(=O)(=O)N(C)C[C@@H]2OCCCC[C@@H](C)Oc3ccc(NC(=O)Nc4ccc5c(c4)OCO5)cc3C(=O)N([C@@H](C)CO)C[C@@H]2C)cc1	5	3
Cc1ccc(NC(=O)Nc2ccc3c(c2)C(=O)N(C)[C@H]2CC[C@@H](CC(=O)O)O[C@@H]2CO3)cc1	7	3
COc1cccc(NC(=O)N2[C@H](CO)[C@@H](c3ccccc3)[C@H]2CNC(C)C)c1	3	5
C/C=C/c1ccc2c(c1)O[C@@H](CN(C)C(=O)Nc1cc(F)ccc1F)[C@H](C)CN([C@@H](C)CO)S2(=O)=O	-27	-21
Cc1noc(C)c1NC(=O)Nc1ccc2c(c1)C(=O)N([C@@H](C)CO)C[C@H](C)[C@@H](CN(C)S(=O)(=O)c1ccc(Cl)cc1)OCCCC[C@@H](C)O2	2	-4
C/C=C/c1ccc([C@H]2[C@@H](CO)N(C(=O)C3CCCC3)C23CN(C(=O)NC(C)C)C3)cc1	-3	4
Cc1noc(C)c1S(=O)(=O)Nc1ccc2c(c1)C(=O)N([C@H](C)CO)C[C@H](C)[C@H](CN(C)Cc1ccc(C(F)(F)F)cc1)OCCCC[C@@H](C)O2	13	-6
CCC(=O)N1C[C@H]2[C@@H](c3ccccc31)[C@@H](CO)N2C(=O)CC	10	1
CC(C)NC(=O)Nc1ccc2c(c1)C(=O)N([C@@H](C)CO)C[C@@H](C)[C@@H](CN(C)S(=O)(=O)c1ccccc1)OCCCC[C@H](C)O2	9	9
O=C(NCC(F)(F)F)[C@@H]1[C@@H](CO)[C@@H]2Cn3c(ccc(-c4ccncc4)c3=O)[C@@H]2N1Cc1ccncc1	-5	0
C[C@H](CO)N1C[C@H](C)[C@@H](CN(C)C(=O)NC2CCCCC2)Oc2ccc(NS(C)(=O)=O)cc2C1=O	12	3
CO[C@@H]1CN(C)C(=O)c2ccc(NC(=O)Nc3ccc(F)cc3)cc2OC[C@@H](C)N(C(=O)c2ccc(F)cc2)C[C@H]1C	-19	-6

Molecules above that contain a Cl atom (2):
SMILES	Vaccinia inh	Vaccinia inh Venus
O=S(=O)(N[C@@H]1CC[C@@H](CCNS(=O)(=O)c2ccccc2Cl)O[C@H]1CO)c1ccccc1	-8	-7
Cc1noc(C)c1NC(=O)Nc1ccc2c(c1)C(=O)N([C@@H](C)CO)C[C@H](C)[C@@H](CN(C)S(=O)(=O)c1ccc(Cl)cc1)OCCCC[C@@H](C)O2	2	-4

Some of the entries so far, with values under each structure.
Values run as follows: Vaccinia inh, Vaccinia inh Venus
> CC(C)NC(=O)Nc1ccc2c(c1)C(=O)N([C@@H](C)CO)C[C@@H](C)[C@@H](CN(C)S(=O)(=O)c1ccccc1)OCCCC[C@H](C)O2
→ 9, 9
> COc1ccc(NC(=O)Nc2ccc3c(c2)C(=O)N([C@@H](C)CO)C[C@@H](C)[C@@H](CN(C)S(C)(=O)=O)O3)cc1
→ 3, 6

(more compounds)
SMILES	Vaccinia inh	Vaccinia inh Venus
CCCNC(=O)Nc1ccc2c(c1)C(=O)N(C)C[C@@H](OC)[C@@H](C)CN(Cc1cncnc1)[C@@H](C)CO2	10	10
O=C(Nc1cccc(Cl)c1)N1C[C@H]2[C@@H](c3ccccc31)[C@H](CO)N2C(=O)c1cccnc1	8	9
Cc1cccc(S(=O)(=O)N2CC[C@@H]3[C@H](CO)Nc4ccc(C5=CCCCC5)cc4[C@@H]32)c1	-4	-2
C[C@H]1CN([C@@H](C)CO)C(=O)c2cc(-c3ccccc3F)cnc2O[C@@H]1CN(C)Cc1ccccc1F	-23	-12
C/C=C/c1ccc2c(c1)O[C@H](CN(C)C(=O)c1ccncc1)[C@H](C)CN([C@H](C)CO)S2(=O)=O	2	6
CO[C@H]1CN(C)C(=O)c2cc(NC(=O)Nc3cc(F)ccc3F)ccc2OC[C@@H](C)N(C)C[C@@H]1C	-21	-5
C[C@@H]1CN([C@H](C)CO)C(=O)c2cc(NC(=O)NC3CCCCC3)ccc2O[C@@H](C)CCCCO[C@H]1CN(C)C(=O)c1ccccc1	-28	-24
COc1ccccc1-c1cnc2c(c1)C(=O)N([C@@H](C)CO)C[C@H](C)[C@H](CN(C)C(=O)CC1CC1)O2	1	5
COc1ccc(S(=O)(=O)N(C)C[C@@H]2Oc3ccc(NC(=O)NC4CCCCC4)cc3CC(=O)N([C@@H](C)CO)C[C@H]2C)cc1	-1	-3
COCCNC(=O)C[C@@H]1CC[C@@H](NC(=O)NC2CCCC2)[C@H](CO)O1	-6	16
C[C@H](CO)N1C[C@H](C)[C@H](CN(C)Cc2ccccn2)Oc2cc(-c3ccc(C#N)cc3)ccc2S1(=O)=O	-5	0
C[C@H](CO)N1C[C@H](C)[C@@H](CN(C)C(=O)NC2CCCCC2)OCc2cn(nn2)CCCC1=O	10	10
C[C@@H](NC(=O)C[C@H]1C=C[C@H](NC(=O)C2CCC2)[C@H](CO)O1)c1ccccc1	4	11
O=C(Nc1ccc(C(F)(F)F)cc1)N[C@@H]1CC[C@@H](CC(=O)N2CCCCC2)O[C@@H]1CO	-1	-5
CC(C)NC(=O)N(C)C[C@@H]1Oc2cc(-c3ccccc3F)ccc2S(=O)(=O)N([C@H](C)CO)C[C@H]1C	-17	-13

Another view of part of the listing above.
C/C=C/c1ccc2c(c1)O[C@H](CN(C)C(=O)c1ccncc1)[C@H](C)CN([C@H](C)CO)S2(=O)=O
- Vaccinia inh: 2
- Vaccinia inh Venus: 6

CO[C@H]1CN(C)C(=O)c2cc(NC(=O)Nc3cc(F)ccc3F)ccc2OC[C@@H](C)N(C)C[C@@H]1C
- Vaccinia inh: -21
- Vaccinia inh Venus: -5

C[C@@H]1CN([C@H](C)CO)C(=O)c2cc(NC(=O)NC3CCCCC3)ccc2O[C@@H](C)CCCCO[C@H]1CN(C)C(=O)c1ccccc1
- Vaccinia inh: -28
- Vaccinia inh Venus: -24

Following part:
SMILES	Vaccinia inh	Vaccinia inh Venus
COc1ccc(S(=O)(=O)N(C)C[C@H]2OCCCC[C@@H](C)Oc3ccc(N(C)C)cc3C(=O)N([C@@H](C)CO)C[C@H]2C)cc1	-20	-15
CCC(=O)N1CC2(C1)CN(C(=O)Nc1ccccc1F)[C@@H](CO)c1c2c2ccc(OC)cc2n1C	19	-3
CCCNC(=O)N(C)C[C@H]1Oc2cc(-c3cccnc3)ccc2S(=O)(=O)N([C@H](C)CO)C[C@H]1C	12	7
Cc1noc(C)c1S(=O)(=O)Nc1ccc2c(c1)CC(=O)N([C@@H](C)CO)C[C@H](C)[C@@H](CN(C)C(=O)Nc1cccc3ccccc13)O2	13	19
O=S(=O)(c1ccccc1)N1[C@H](CO)[C@H]2c3ccccc3NC[C@H]21	10	6
O=C(c1cnccn1)N1CC(=O)N2[C@H](C1)[C@@H](c1ccc(-c3cccc(F)c3)cc1)[C@@H]2CO	-1	1
CO[C@@H]1CN(C)C(=O)c2ccc(NC(=O)c3ccccc3)cc2OC[C@@H](C)N(C)C[C@H]1C	15	8
COc1ccc(NC(=O)N(C)C[C@@H]2Oc3c(NS(=O)(=O)c4ccc(Cl)cc4)cccc3C(=O)N([C@H](C)CO)C[C@H]2C)cc1	6	9
C[C@H]1CN([C@@H](C)CO)S(=O)(=O)c2ccc(-c3ccc(C(=O)N(C)C)cc3)cc2O[C@@H]1CN(C)C(=O)C1CCC1	0	2
CO[C@@H]1CC[C@@H]2CCN(C)C(=O)[C@@H](C)CN(C)C(=O)c3cc(C#N)ccc3OC[C@H]1O2	4	4
CC(=O)N(C)C[C@H]1Oc2cc(-c3ccncc3)ccc2S(=O)(=O)N([C@@H](C)CO)C[C@@H]1C	22	7
CC(C)NC(=O)Nc1ccc2c(c1)C(=O)N([C@H](C)CO)C[C@H](C)[C@H](CN(C)Cc1ccccc1)OCCCC[C@H](C)O2	-9	-4
O=C(C[C@H]1CC[C@H](NC(=O)c2ccncc2)[C@@H](CO)O1)NCC1CCCCC1	-5	-1
COc1ccccc1-c1ccc([C@@H]2[C@@H](CO)N3CCCCN(C(=O)CN4CCOCC4)C[C@H]23)cc1	-17	-15
Cc1noc(C)c1NC(=O)N(C)C[C@H]1Oc2c(NC(=O)Nc3ccc(F)cc3)cccc2C(=O)N([C@H](C)CO)C[C@@H]1C	7	5
CC(C)NC(=O)NCC[C@@H]1CC[C@@H](NS(=O)(=O)c2ccc(-c3ccccc3)cc2)[C@@H](CO)O1	-10	-5
COc1cccc(C#Cc2cnc3c(c2)C(=O)N([C@@H](C)CO)C[C@@H](C)[C@@H](CN(C)C(C)=O)O3)c1	-3	3
CCC(=O)Nc1ccc2c(c1)OC[C@@H](C)N(CC1CC1)C[C@H](C)[C@H](OC)CN(C)C2=O	1	5
C[C@@H]1CN([C@H](C)CO)S(=O)(=O)c2ccc(C#C[C@@H](C)O)cc2O[C@H]1CN(C)C(=O)C1CCCCC1	-4	-1
C[C@@H]1CN([C@H](C)CO)C(=O)c2cccc(NC(=O)Nc3ccc(C(F)(F)F)cc3)c2O[C@H]1CN(C)C(=O)Nc1ccc(F)cc1	-30	-21
Cc1noc(C)c1NC(=O)N[C@H]1CC[C@H](CC(=O)N2CCN(C)CC2)O[C@H]1CO	7	4
C[C@@H]1CN([C@@H](C)CO)C(=O)c2cc(NS(=O)(=O)c3ccc(Cl)cc3)ccc2O[C@@H]1CN(C)Cc1ccc(-c2ccccc2)cc1	-11	-10
C[C@H](CO)N1C[C@H](C)[C@H](CN(C)Cc2ccncc2)Oc2ccc(NS(=O)(=O)c3ccc(Cl)cc3)cc2C1=O	13	7
C[C@@H]1CN([C@H](C)CO)C(=O)Cc2cc(NC(=O)Nc3cccc4ccccc34)ccc2O[C@@H]1CN(C)S(=O)(=O)c1cn(C)cn1	9	1
COc1cccc(-c2ccc3c(c2)O[C@H](CN(C)Cc2ccncc2)[C@H](C)CN([C@@H](C)CO)S3(=O)=O)c1	?	nt
CC=Cc1ccc2n(c1=O)C[C@@H]1[C@@H](CO)[C@H](C(=O)N3CCOCC3)N(Cc3ccccc3)[C@H]21 (mixture of isomers)	9	19
C[C@H]1CN([C@@H](C)CO)C(=O)c2cc(C3=CCCC3)cnc2O[C@@H]1CN(C)Cc1cccnc1	1	-2
NC(=O)NCC#Cc1ccc2c(c1)[C@]1(C(=O)N2)[C@H](c2ccccc2OCCO)N2[C@H](c3ccccc3)[C@H](c3ccccc3)OC(=O)[C@H]2[C@@H]1C(=O)N1CCN(c2ncccn2)CC1	0	-1
C[C@@H]1CN([C@@H](C)CO)C(=O)c2cc(NS(=O)(=O)c3cccs3)ccc2O[C@@H](C)CCCCO[C@H]1CN(C)Cc1ccc(C(F)(F)F)cc1	?	nt
C[C@@H]1CN([C@@H](C)CO)C(=O)Cc2cc(NC(=O)CCCCCC(=O)Nc3ccccc3N)ccc2O[C@@H]1CN(C)C(=O)Nc1cccc2ccccc12	-5	3
C[C@@H]1CN([C@@H](C)CO)C(=O)c2cc(C3=CCCCC3)cnc2O[C@H]1CN(C)C(=O)c1ccncc1	7	-5
CN(C)CC(=O)Nc1ccc2c(c1)[C@@H]1C[C@@H](CC(=O)NCc3ccccn3)O[C@H](CO)[C@@H]1O2	11	0
C[C@H](CO)N1C[C@H](C)[C@H](CN(C)C(=O)CCCN(C)C)OCCCC[C@H](C)Oc2ccc(NC(=O)c3ccccc3)cc2C1=O	10	13
C[C@@H]1CN([C@H](C)CO)C(=O)c2cc(NC(=O)CCC(F)(F)F)ccc2O[C@@H](C)CCCCO[C@H]1CN(C)Cc1ccccc1	-10	0
CC(=O)Nc1ccc2c(c1)C(=O)N(C)[C@H]1CC[C@H](CC(=O)NCc3ccc(F)cc3)O[C@@H]1CO2	4	5
CN1C(=O)c2cc(NS(C)(=O)=O)ccc2OC[C@@H]2O[C@H](CC(=O)NCc3ccccc3)CC[C@H]21	2	2
COc1ccc(NC(=O)Nc2ccc3c(c2)OC[C@@H](C)NC[C@H](C)[C@@H](OC)CN(C)C3=O)cc1	11	14
C/C=C/c1ccc([C@H]2[C@H](CO)N(C(=O)C3CC3)C23CN(C(=O)NC(C)C)C3)cc1	2	3
COc1cccc(S(=O)(=O)N(C)C[C@@H]2Oc3ncc(C#CC(C)C)cc3C(=O)N([C@@H](C)CO)C[C@H]2C)c1	-8	-11
Cc1nn(C)cc1NC(=O)C[C@@H]1CC[C@H]2[C@@H](COc3ccc(NC(=O)Nc4cccc(Cl)c4)cc3C(=O)N2C)O1	20	16
C[C@@H]1CN([C@@H](C)CO)C(=O)c2cc(NC(=O)C3CCCCC3)ccc2O[C@H]1CN(C)C(=O)NC1CCCCC1	15	5
CN(C)CC(=O)Nc1ccc2c(c1)[C@H]1C[C@@H](CC(=O)NC3CCCCC3)O[C@H](CO)[C@H]1O2	1	12
CCC(=O)N1C[C@H](C)[C@@H](OC)CN(C)C(=O)c2ccc(NC(=O)NC(C)C)cc2OC[C@@H]1C	0	4
Cc1ccc(S(=O)(=O)Nc2ccc3c(c2)CC(=O)N([C@H](C)CO)C[C@@H](C)[C@H](CN(C)S(=O)(=O)c2c(C)noc2C)O3)cc1	7	2
